Assay outcomes from PubChem BioAssay.
Autofluor counter – counter-screen for toxin protease inhibitors: compound fluorescence. compound autofluorescence counterscreen, microsphere flow cytometry; active compounds read high. fluorescence intensity (no concentration beside the values). 360,000 compounds, 3.1% hits;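 active = at least 3 SD above the mean of all compounds, about 16000 in these data; inconclusive = too few beads counted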;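 note: 100 nL of 1 mM stock went into each well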
PrP UTR inh – suppresses PrP 5' UTR mRNA reporter expression | cell-based PrP 5' UTR mRNA reporter, plate reader | inhibition, % (concentration not given with the values) | 340,000 compounds, 0.35% hits;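 active = every replicate at 50% or more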;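 note: 0 = median of the neutral control wells; tested in H4 reporter cells; numbers are from one replicate; inactives centre near -14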
ugtP null kill – kills S. aureus RN4220 lacking UgtP | AID 1259309 | 330,000 compounds, 0.54% hits | S. aureus RN4220 ugtP deletion, OD600 growth, 16 h; some inactives read as strong as hits | growth inhibition, % (concentration not given with the values);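 active = z-score under -3 and OD600 up to 0.15 on both plates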;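 note: plate controls were untreated wells for no effect and antibiotic for full effect; wells of about 80 µL received 100 nL stock; the first replicate is given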
BJeLR viability – kills HRASV12-expressing BJeLR cells; AID 1554; 300,000 compounds, 0.17% hits; inhibition, % (no concentration beside the values); BJeLR (HRASV12) viability, CellTiter-Glo ATP luminescence, 48 h; reference of the scale not given here;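 active = replicate mean above 50%; inconclusive = above 50% but judged a plate artefact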;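 note: 50 nL library stock added to about 25 µL; numbers are from one replicate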
Mtb hypoxia rep – inhibitors of hypoxia-regulated fluorescent reporter in Mycobacterium tuberculosis. M. tuberculosis hypoxia-regulated fluorescent reporter, fluorescence. fluorescence inhibition, % (no concentration beside the values). 300,000 compounds, 0.1% hits;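 active = 35 to 45% if threefold the growth effect, above 45% if 1.5-fold the growth effect; inactive = the rest, general growth blockers included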;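 note: wells of about 50 µL received 100 nL stock; 0% = vehicle wells and 100% = reference inhibitor wells; whole bacteria with a GFP reporter of the hypoxia response; strong numbers were not always called active; many hits fall short of the cut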
Sa RN4220 lethal – kills Staphylococcus aureus RN4220; S. aureus RN4220 growth, OD600, 16 h; inhibition, % (no concentration beside the values); 330,000 compounds, 0.33% hits; AID 1259311;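 active = z-score of -3 or lower and OD600 up to 0.18 on both plates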;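 note: plate controls were untreated cells for no effect and reference antibiotic for full effect; stock transfer was 100 nL into about 80 µL; one replicate is shown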
Mtb hypoxia rep growth – also measured in Mtb hypoxia rep; calls as there; growth inhibition, %; measured here: M. tuberculosis growth (absorbance);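 0% = vehicle and 100% = reference antibiotic; read after six days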
The depositor's hits bear a star. Rows are unselected; overall some 4% were active at least once.

What do the screens show for `Cc1ccc(/C=C/S(=O)(=O)Nc2ccc(C)cc2)cc1`?
Autofluor counter: 4501; PrP UTR inh: -13.7; ugtP null kill: -12.0; BJeLR viability: -0.7; Mtb hypoxia rep: 8.8; Sa RN4220 lethal: 13.0; Mtb hypoxia rep growth: -2.8

How did COC(=O)[C@]1(C)N[C@H](CN(C)C(=O)NC(C)C)[C@@H]2C(=O)N(C)C(=O)[C@@H]21 do in these assays?
Autofluor counter: 3587; PrP UTR inh: -19.8; ugtP null kill: 3.9; Mtb hypoxia rep: -2.5; Sa RN4220 lethal: 0.3; Mtb hypoxia rep growth: 6.1

What do the screens show for `S=c1[nH]nc(-c2ccccn2)n1/N=C/c1ccc(-c2ccccc2Br)o1`?
Autofluor counter: 3987; PrP UTR inh: -3.5; BJeLR viability: 6.3

How did Cc1ccc(C2=NC(C(F)(F)F)(C(F)(F)F)c3c(n(-c4ccc(F)cc4)c(=O)[nH]c3=O)N2)cc1 do in these assays?
Autofluor counter: 2414; PrP UTR inh: -21.1; ugtP null kill: -20.3; BJeLR viability: 18.2; Mtb hypoxia rep: -7.8; Sa RN4220 lethal: -10.7; Mtb hypoxia rep growth: 2.0

How did CCN(c1ccccc1)S(=O)(=O)c1ccc(OC)c(NC(=O)Cc2ccc(OC)c(OC)c2)c1 do in these assays?
Autofluor counter: 3535; PrP UTR inh: -10.6; ugtP null kill: 0.9; Mtb hypoxia rep: 8.3; Sa RN4220 lethal: 8.1; Mtb hypoxia rep growth: 2.5

How did Cc1cccc(-c2nc(C#N)c(NCC3CCCO3)o2)c1 (stereo not given) do in these assays?
Autofluor counter: 3804; PrP UTR inh: -17.3; ugtP null kill: 2.3; BJeLR viability: 9.9; Mtb hypoxia rep: 12.5; Sa RN4220 lethal: 1.5; Mtb hypoxia rep growth: 10.9

What do the screens show for `CCc1cccc(C)c1NC(=O)c1cc(-c2ccncc2)nc2ccccc12`?
Autofluor counter: inconclusive; PrP UTR inh: -14.5; ugtP null kill: -3.5; Mtb hypoxia rep: -18.5; Sa RN4220 lethal: 5.8; Mtb hypoxia rep growth: -11.3

Results for CC[C@]12c3[nH]c4cc(CCC(=O)N(C)C)ccc4c3CCN1C(=O)[C@@H](CC(=O)NCc1ccco1)C[C@@H]2C(=O)N1CCN(C(=O)C2CC2)CC1 ?
Autofluor counter: 3738; PrP UTR inh: -3.4; ugtP null kill: 1.2; Mtb hypoxia rep: 0.1; Sa RN4220 lethal: 0.8; Mtb hypoxia rep growth: 3.8

What do the screens show for `Cc1c(NC(=O)C(C)N2C(=O)C3CCCCC3C2=O)c(=O)n(-c2ccccc2)n1C` (stereo not given)?
Autofluor counter: 3919; PrP UTR inh: -35.9; ugtP null kill: 4.0; BJeLR viability: 1.9; Mtb hypoxia rep: 12.4; Sa RN4220 lethal: 3.9; Mtb hypoxia rep growth: 20.5

How did O=C(CN1C(=O)/C(=C/c2ccccc2)SC1=S)Nc1ncc(Cc2ccccc2)s1 do in these assays?
Autofluor counter: 2718; PrP UTR inh: -27.9; BJeLR viability: 13.8

What do the screens show for `COc1cc(CN2CCNC(=O)C2CC(=O)NCCc2ncccc2C)cc(OC)c1` (stereo not given)?
Autofluor counter: 4414; PrP UTR inh: -27.3; ugtP null kill: 5.5; BJeLR viability: 13.4; Mtb hypoxia rep: 13.1; Sa RN4220 lethal: 3.0; Mtb hypoxia rep growth: 14.4

What do the screens show for `COc1cc(-c2nnc(-c3ccccc3)o2)cc(OC)c1OC`?
Autofluor counter: 3248; PrP UTR inh: -10.6; ugtP null kill: 2.6; BJeLR viability: -1.4; Mtb hypoxia rep: -0.8; Sa RN4220 lethal: 1.5; Mtb hypoxia rep growth: 7.2

What do the screens show for `O=C(Nc1ccccc1N1CCCCC1)c1ccc(-c2cccc(Cl)c2)o1`?
Autofluor counter: 9634; PrP UTR inh: -23.1; ugtP null kill: -33.9; BJeLR viability: 11.2; Mtb hypoxia rep: 7.3; Sa RN4220 lethal: -2.9; Mtb hypoxia rep growth: 3.3

Results for N#Cc1cc2ccccc2nc1N ?
Autofluor counter: 3675; PrP UTR inh: -15.7; ugtP null kill: 7.0; BJeLR viability: -11.0; Mtb hypoxia rep: 2.2; Sa RN4220 lethal: 8.6; Mtb hypoxia rep growth: -2.4

Results for CC1(C)C(=O)OC(/C=C/c2cccc([N+](=O)[O-])c2)C(C)(C)C1=O (stereo not given) ?
Autofluor counter: 4287; PrP UTR inh: -6.8; ugtP null kill: 12.9; BJeLR viability: -4.5; Mtb hypoxia rep: 6.9; Sa RN4220 lethal: 6.2; Mtb hypoxia rep growth: 5.9

How did Cc1ccc2nc(SCC(=O)N3CCN(c4ccccc4)CC3)[nH]c2c1 do in these assays?
Autofluor counter: 6069; PrP UTR inh: -21.8; ugtP null kill: 7.3; BJeLR viability: -0.9; Mtb hypoxia rep: 7.0; Sa RN4220 lethal: 5.2; Mtb hypoxia rep growth: 3.0

Results for COc1ccc(CCNC(=O)c2ccc([N+](=O)[O-])cc2Cl)cc1OC ?
Autofluor counter: 3508; PrP UTR inh: 0.9; ugtP null kill: 1.9; BJeLR viability: 0.7; Mtb hypoxia rep: -2.6; Sa RN4220 lethal: 5.0; Mtb hypoxia rep growth: -0.3

Results for COc1ccc(C(=O)NC(=S)N(CCC(C)C)c2c(N)n(Cc3ccccc3)c(=O)[nH]c2=O)cc1 ?
Autofluor counter: 2049; PrP UTR inh: -12.9; ugtP null kill: 5.9; BJeLR viability: 5.3; Mtb hypoxia rep: 2.6; Sa RN4220 lethal: 1.4; Mtb hypoxia rep growth: 1.9

Results for CCc1ccc2[nH]c(=O)c(CN(CCN3CCCC3)C(=O)NC3CCCCC3)cc2c1 ?
Autofluor counter: 8319; PrP UTR inh: -7.5; ugtP null kill: -3.0; BJeLR viability: -3.3; Mtb hypoxia rep: 9.0; Sa RN4220 lethal: 4.8; Mtb hypoxia rep growth: 9.5

What do the screens show for `Cc1ccc(-c2ccc(C=Nn3cnnc3)o2)c(Br)c1`?
ugtP null kill: 3.0; Mtb hypoxia rep: 24.7; Sa RN4220 lethal: 5.1; Mtb hypoxia rep growth: -6.0

The list goes on, starting with the last two of the part before.
Results for CCc1ccc2[nH]c(=O)c(CN(CCN3CCCC3)C(=O)NC3CCCCC3)cc2c1 ?
Autofluor counter: 8319; PrP UTR inh: -7.5; ugtP null kill: -3.0; BJeLR viability: -3.3; Mtb hypoxia rep: 9.0; Sa RN4220 lethal: 4.8; Mtb hypoxia rep growth: 9.5

What do the screens show for `Cc1ccc(-c2ccc(C=Nn3cnnc3)o2)c(Br)c1`?
ugtP null kill: 3.0; Mtb hypoxia rep: 24.7; Sa RN4220 lethal: 5.1; Mtb hypoxia rep growth: -6.0

Results for Cc1onc(-c2ccccc2Cl)c1C(=O)NNC(=O)c1ccccc1F ?
Autofluor counter: 3763; PrP UTR inh: -13.3; ugtP null kill: -7.5; BJeLR viability: 9.6; Mtb hypoxia rep: 14.8; Sa RN4220 lethal: 5.6; Mtb hypoxia rep growth: -3.8

What do the screens show for `Cc1cc(C)c(S(=O)(=O)NCc2cccnc2)c(C)c1`?
Autofluor counter: 3796; PrP UTR inh: 1.9; ugtP null kill: -4.5; BJeLR viability: 0.9; Mtb hypoxia rep: 11.7; Sa RN4220 lethal: 2.6; Mtb hypoxia rep growth: 1.8

What do the screens show for `Cc1ccc(-c2csc3ncn(CC(=O)O)c(=O)c23)cc1C`?
Autofluor counter: 3157; PrP UTR inh: -14.4; ugtP null kill: 0.6; BJeLR viability: -3.3; Mtb hypoxia rep: -1.5; Sa RN4220 lethal: 4.5; Mtb hypoxia rep growth: 5.0

Results for O=c1c(=Cc2ccc(O)cc2)sc2nc3cc(Br)cnc3n12 ?
ugtP null kill: -14.1; Mtb hypoxia rep: -2.8; Sa RN4220 lethal: 1.5; Mtb hypoxia rep growth: -1.7

Results for O=C(c1cccs1)N(Cc1ccco1)C1CCS(=O)(=O)C1 (stereo not given) ?
Autofluor counter: 22695*; PrP UTR inh: -24.2; ugtP null kill: 0.9; BJeLR viability: -2.4; Mtb hypoxia rep: 7.0; Sa RN4220 lethal: 5.1; Mtb hypoxia rep growth: 2.8

What do the screens show for `c1ccc(CNc2ncnc3sccc23)cc1`?
Autofluor counter: 5638; PrP UTR inh: -12.7; ugtP null kill: 1.4; BJeLR viability: 12.3; Mtb hypoxia rep: 5.2; Sa RN4220 lethal: -0.2; Mtb hypoxia rep growth: -3.1

How did CCOC(=O)c1[nH]c(C)c(C(=O)NC2CCN(C(=O)OCC)CC2)c1C do in these assays?
Autofluor counter: 3166; PrP UTR inh: -14.6; ugtP null kill: -6.7; BJeLR viability: 5.9; Mtb hypoxia rep: -0.3; Sa RN4220 lethal: -4.0; Mtb hypoxia rep growth: 9.9

What do the screens show for `Nc1ncnc2c1nc(SCCO)n2Cc1ccccc1`?
Autofluor counter: 3296; PrP UTR inh: -18.8; ugtP null kill: -9.0; BJeLR viability: 2.0; Mtb hypoxia rep: -7.8; Sa RN4220 lethal: -0.3; Mtb hypoxia rep growth: 2.9

What do the screens show for `CCN(CC)C(=O)CSc1nnc(-c2ccc(S(=O)(=O)N3CCOCC3)cc2)n1C`?
Autofluor counter: 3920; PrP UTR inh: -12.7; BJeLR viability: 0.1

Results for COc1ccc(NC(=S)N/N=C2\CC(C)(C)Oc3ccc(OC)cc32)cc1 ?
Autofluor counter: 1904; PrP UTR inh: -4.8; BJeLR viability: -5.7

How did CCCCN1C(C(=O)Nc2cc(C)on2)=C(O)c2ccccc2S1(=O)=O do in these assays?
Autofluor counter: 3738; PrP UTR inh: -23.2; ugtP null kill: 4.5; BJeLR viability: -11.2; Mtb hypoxia rep: 1.4; Sa RN4220 lethal: 2.5; Mtb hypoxia rep growth: -9.3

Results for O=C(CN1CCC(NC(=O)Nc2ccccc2-c2ccccc2)CC1)NCc1ccco1 ?
Autofluor counter: 5980; PrP UTR inh: -2.3; ugtP null kill: 11.0; BJeLR viability: -0.9; Mtb hypoxia rep: 6.8; Sa RN4220 lethal: -1.2; Mtb hypoxia rep growth: 2.5

Results for Cc1ccc(S(=O)(=O)/N=C(/Nc2cccc(O)c2)c2ccccc2)cc1 ?
Autofluor counter: 5277; PrP UTR inh: -4.5; ugtP null kill: 2.7; BJeLR viability: -1.7; Mtb hypoxia rep: -1.5; Sa RN4220 lethal: 4.7; Mtb hypoxia rep growth: 3.6

How did COc1cc2c(cc1OC)C(C(=O)N(C)C1CCCCC1)C1CCCCN1C2=O (stereo not given) do in these assays?
Autofluor counter: 7849; PrP UTR inh: -25.1; BJeLR viability: -6.9

What do the screens show for `Cc1ccc(S(=O)(=O)C2(C(=O)N(C)C3CCCCC3)CC2)cc1`?
Autofluor counter: 8157; PrP UTR inh: -20.1; ugtP null kill: 11.6; BJeLR viability: -9.2; Mtb hypoxia rep: 11.8; Sa RN4220 lethal: 5.9; Mtb hypoxia rep growth: 10.4

Results for O=C(Nc1ccccc1N1CCN(C(=O)c2ccccc2)CC1)c1ccc2c(c1)OCO2 ?
Autofluor counter: 23405*; PrP UTR inh: -13.5; ugtP null kill: -4.9; BJeLR viability: -0.7; Mtb hypoxia rep: -6.7; Sa RN4220 lethal: -0.9; Mtb hypoxia rep growth: 8.3

Results for CC(C)(C)NC(=O)CN(CCN1CCOCC1)C(=O)CNS(=O)(=O)c1ccccc1 ?
Autofluor counter: 2918; PrP UTR inh: 4.5; ugtP null kill: 5.6; BJeLR viability: 2.8; Mtb hypoxia rep: -2.2; Sa RN4220 lethal: -0.1; Mtb hypoxia rep growth: 10.6

How did CC(=O)CC(=O)NC1C2CC3CC(C2)CC1C3 (stereo not given) do in these assays?
PrP UTR inh: -15.3; ugtP null kill: -4.2; BJeLR viability: -0.2; Sa RN4220 lethal: -3.4

What do the screens show for `COc1ccc(CNC(=O)C(Cc2ccccc2)n2cccc2)cc1` (stereo not given)?
Autofluor counter: 5304; PrP UTR inh: -7.7; ugtP null kill: 10.5; BJeLR viability: 4.7; Mtb hypoxia rep: 17.5; Sa RN4220 lethal: 0.5; Mtb hypoxia rep growth: 9.7
